Vaccinia inh: Vaccinia orthopox stage-specific inhibition; 0.01% of 89,000 active; Vaccinia-infected cells, mCherry/Venus stage reporter fluorescence; stronger effect = lower value; some inactives read as strong as hits; activity change (mCherry), % (concentration not given with the values);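 active = mCherry past -33% and 40 or more points under the early reporter, replicates agreeing; inconclusive = past -33% without that gap or agreement; tested in A549 cells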;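 also: scaled between vehicle wells and reference inhibitor wells; 23 nL library stock went into each well; one replicate is shown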
Vaccinia inh Venus: second read-out of Vaccinia inh, no call of its own (marks repeat the call); activity change (Venus), %; measured here: Venus reporter, other viral stage;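 negative = less Venus signal; first of two replicates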
* marks the source's active call; other numbers are inactive results; ? = inconclusive; / = no result given. Not all compounds are listed; the hit share may differ from the screen's.

canonical_smiles,Vaccinia inh,Vaccinia inh Venus
CN1CCN(C(=O)C[C@@H]2C[C@@H]3c4cc(NC(=O)C5CCOCC5)ccc4O[C@@H]3[C@H](CO)O2)CC1,6,5
C[C@@H]1CN([C@@H](C)CO)C(=O)c2cc(NC(=O)C3CC3)ccc2O[C@H]1CN(C)Cc1ccc(-c2ccccc2)cc1,-28,-19
C[C@@H]1CCCCO[C@H](CN(C)C(=O)Nc2ccc(F)cc2)[C@H](C)CN([C@H](C)CO)C(=O)c2cc(NC(=O)C3CCCCC3)ccc2O1,8,3
O=C(NC[C@@H]1[C@@H](c2ccccc2)[C@H](CO)N1C(=O)Cc1cccnc1)C1CC1,17,13
CCNC(=O)[C@H]1[C@H](CO)[C@H]2Cn3c(ccc(-c4ccccc4)c3=O)[C@@H]1N2C(=O)CC1CC1,2,-1
C[C@H](CO)N1C[C@H](C)[C@@H](CN(C)C(=O)C2CCOCC2)Oc2ncc(C#Cc3ccccc3F)cc2C1=O,18,1
C[C@H]1CN([C@@H](C)CO)C(=O)c2cc(C#Cc3ccccc3F)cnc2O[C@@H]1CN(C)C(=O)C1CCCCC1,?,/
CN1C[C@@H](O)COC[C@H]2O[C@H](CC(=O)N3CCN(c4ccccc4)CC3)CC[C@@H]21,12,4
CCS(=O)(=O)NCC[C@@H]1CC[C@@H](NS(=O)(=O)c2ccccc2C)[C@H](CO)O1,15,19
O=C(C[C@@H]1CC[C@@H]2[C@H](COC[C@@H](O)CN2Cc2cc(F)cc(F)c2)O1)NCc1cccc(F)c1,-5,-9
O=C(C[C@@H]1CC[C@@H]2[C@H](COC[C@@H](O)CN2CCc2ccccc2)O1)N1CCC(Cc2ccccc2)CC1,?,/
COCC(=O)Nc1ccc2c(c1)OC[C@H](C)N(Cc1ccccc1F)C[C@@H](C)[C@H](OC)CN(C)C2=O,-14,-12
COc1ccc(S(=O)(=O)N(C)C[C@H]2OCCCC[C@@H](C)Oc3ccc(NC(=O)Cc4ccccc4)cc3C(=O)N([C@@H](C)CO)C[C@@H]2C)cc1,-8,-6
COc1cccc(CNC(=O)C[C@H]2CC[C@@H](NC(=O)C3CCOCC3)[C@@H](CO)O2)c1,3,6
COc1ccc(NC(=O)N(C)C[C@@H]2OCc3cnnn3CCCC(=O)N([C@@H](C)CO)C[C@@H]2C)c(OC)c1,17,10
CCCNC(=O)C[C@H]1CC[C@@H]2[C@H](COc3ccc(NC(=O)C4CCOCC4)cc3C(=O)N2C)O1,2,4
C[C@@H]1CN([C@@H](C)CO)C(=O)c2cccc(NC(=O)c3nc4ccccc4s3)c2O[C@H]1CN(C)C(=O)NC1CCCCC1,22,11
C[C@H](NC(=O)C[C@H]1C[C@H]2c3cc(NS(=O)(=O)c4ccc(F)cc4)ccc3O[C@H]2[C@H](CO)O1)c1ccccc1,-29,-29
Cc1ccc(-c2ccc3c(c2)O[C@H](CN(C)C(=O)C2CC2)[C@H](C)CN([C@@H](C)CO)S3(=O)=O)cc1,5,1
C[C@@H]1CCCCO[C@H](CN(C)Cc2ccncc2)[C@H](C)CN([C@H](C)CO)C(=O)c2cc(NC(=O)Nc3ccc4c(c3)OCO4)ccc2O1,?,/
CCNC(=O)C[C@H]1CC[C@@H]2[C@@H](COc3ccc(NC(=O)Nc4ccc(C)cc4)cc3C(=O)N2C)O1,10,5
Cc1noc(C)c1S(=O)(=O)N(C)C[C@@H]1OCCCC[C@@H](C)Oc2ccc(NC(=O)Nc3ccc(F)cc3)cc2C(=O)N([C@H](C)CO)C[C@H]1C,-13,-6
C[C@@H]1CN([C@H](C)CO)C(=O)c2cc(C#CCN(C)C)cnc2O[C@@H]1CN(C)C(=O)Cc1ccccc1,7,8
CCCN(C)C[C@H]1Oc2ncc(-c3ccccc3OC)cc2C(=O)N([C@@H](C)CO)C[C@H]1C,-14,-9
COc1ccc(-c2ccc3c(c2)[C@@H]2[C@@H](CCN2C(=O)c2cccc(F)c2)[C@H](CO)N3C)cc1,?,/
C[C@@H]1CN([C@H](C)CO)C(=O)c2cccc(NS(=O)(=O)c3ccccc3)c2O[C@@H]1CN(C)C(=O)Nc1cccc2ccccc12,15,16
Cc1noc(C)c1S(=O)(=O)Nc1ccc2c(c1)C(=O)N([C@@H](C)CO)C[C@H](C)[C@@H](CN(C)Cc1ccc(C(F)(F)F)cc1)OCCCC[C@@H](C)O2,?,/
C[C@@H]1CN([C@H](C)CO)C(=O)c2cc(NC(=O)NC3CCCCC3)ccc2O[C@@H]1CN(C)C(=O)Nc1ccc(C(F)(F)F)cc1,8,7
Cc1ccc(S(=O)(=O)N(C)C[C@@H]2Oc3ncc(-c4ccncc4)cc3C(=O)N([C@H](C)CO)C[C@@H]2C)cc1,12,0
CNC[C@H]1Oc2ncc(-c3cccc(C(=O)N(C)C)c3)cc2C(=O)N([C@H](C)CO)C[C@H]1C,30,17

Remaining list, next part
Screens in order: Vaccinia inh	Vaccinia inh Venus
> C[C@H]1CN([C@@H](C)CO)C(=O)c2cccc(NC(=O)C3CCOCC3)c2O[C@H]1CN(C)Cc1ccc2c(c1)OCO2
 : 11	9
> Cc1cccc(NC(=O)Nc2ccc3c(c2)C(=O)N(C)[C@H]2CC[C@H](CC(=O)O)O[C@@H]2CO3)c1
 : 3	1
> C[C@@H]1CCCCO[C@H](CN(C)C(=O)Nc2ccc(C(F)(F)F)cc2)[C@H](C)CN([C@H](C)CO)C(=O)c2cc(NC(=O)Nc3ccccc3)ccc2O1
 : -11	-5
> C[C@@H]1CN([C@@H](C)CO)C(=O)c2cc(-c3cccc(F)c3)cnc2O[C@H]1CN(C)C(=O)c1cnccn1
 : 25	1
> Cc1noc(C)c1S(=O)(=O)Nc1ccc2c(c1)CC(=O)N([C@@H](C)CO)C[C@@H](C)[C@H](CN(C)C(=O)Nc1ccc(F)cc1)O2
 : 21	22
> C[C@@H]1CN([C@@H](C)CO)C(=O)Cc2cc(NC(=O)CCC(F)(F)F)ccc2O[C@H]1CN(C)S(=O)(=O)c1ccccc1
 : -6	1
> COc1ccc2c3c(n(C)c2c1)[C@H](CO)N(C(=O)c1cnccn1)CC31CCN(C(=O)c2ccncc2)CC1
 : 16	-3
> COc1ccc2c3c(n(C)c2c1)[C@H](CO)N(Cc1ccccn1)CC31CN(Cc2ccccn2)C1
 : 3	7
> O=C(CC(F)(F)F)N1C[C@@H]2[C@H](c3ccccc31)[C@H](CO)N2CC1CCOCC1
 : -12	-1
> CN1C(=O)c2cc(NC(=O)c3ccccc3F)ccc2OC[C@H]2O[C@@H](CC(=O)NCc3ccc4c(c3)OCO4)CC[C@H]21
 : 2	-1
> COc1cccc(NC(=O)N[C@@H]2C=C[C@@H](CC(=O)Nc3ccccc3)O[C@@H]2CO)c1
 : 5	4
> C[C@H]1CN([C@@H](C)CO)C(=O)c2cccc(N(C)C)c2O[C@@H]1CN(C)S(=O)(=O)c1ccc(F)cc1
 : -4	-7
> COc1ccc(C#Cc2ccc3c(c2)[C@@H]2[C@@H](CCN2C(=O)C2CCCC2)[C@H](CO)N3)cc1
 : -18	-3
> C[C@H]1CN([C@@H](C)CO)S(=O)(=O)c2ccc(-c3ccc(F)cc3)cc2O[C@@H]1CN(C)C(=O)c1ccccc1F
 : ?	/
> C[C@@H]1CN([C@H](C)CO)C(=O)c2cccc(NC(=O)c3nc4ccccc4s3)c2O[C@@H]1CN(C)Cc1ccc(Cl)c(Cl)c1
 : 4	-4
> C[C@@H]1CN([C@H](C)CO)C(=O)c2cc(N(C)C)ccc2O[C@H]1CN(C)Cc1ccccc1
 : 12	11
> CCNC(=O)Nc1ccc2c(c1)C(=O)N(C)[C@H]1CC[C@H](CC(=O)NCc3ccccc3F)O[C@@H]1CO2
 : 3	9
> CO[C@H]1CN(C)C(=O)c2ccc(NC(=O)c3nc4ccccc4s3)cc2OC[C@H](C)NC[C@@H]1C
 : -33	-19
> C[C@H](CO)N1C[C@H](C)[C@@H](CN(C)S(=O)(=O)c2ccc(F)cc2)Oc2ccc(NC(=O)C3CCCCC3)cc2C1=O
 : -9	-7
> C[C@H](CO)N1C[C@H](C)[C@H](CN(C)Cc2ccccc2)Oc2c(NC(=O)CCCCCC(=O)Nc3ccccc3N)cccc2C1=O
 : 7	15
> Cc1noc(C)c1NC(=O)Nc1ccc2c(c1)CC(=O)N([C@H](C)CO)C[C@H](C)[C@@H](CN(C)Cc1ccc(-c3ccccc3)cc1)O2
 : -28	-18
> N#C[C@@H]1[C@H](c2ccc(-c3cncnc3)cc2)[C@H](CO)N1C(=O)Cc1ccccc1
 : -1	7
> O=C([C@@H]1[C@@H](CO)[C@@H]2Cn3c(ccc(-c4ccccc4)c3=O)[C@H]1N2CCC(F)(F)F)N1CCOCC1
 : 12	9
> OC[C@@H]1[C@@H](c2ccccc2)C2(CN(Cc3nccs3)C2)N1CC1CCOCC1
 : 13	7
> C[C@H]1CN([C@@H](C)CO)C(=O)c2cccc(NC(=O)Nc3ccc4c(c3)OCO4)c2O[C@@H]1CN(C)C(=O)Nc1ccc2c(c1)OCO2
 : 4	5
> C[C@H](CO)N1C[C@H](C)[C@H](CN(C)C)Oc2cc(C#Cc3ccncc3)ccc2S1(=O)=O
 : 2	-3
> C[C@H](CO)N1C[C@H](C)[C@H](CN(C)C)Oc2ccc(NC(=O)Cc3ccccc3)cc2C1=O
 : 16	13
> C[C@H]1CN([C@@H](C)CO)C(=O)c2cc(NC(=O)Nc3ccc4c(c3)OCO4)ccc2O[C@@H]1CN(C)Cc1ccncc1
 : 9	4
> C[C@H](CO)N1C[C@H](C)[C@@H](CN(C)CC2CCCCC2)OCCCC[C@H](C)Oc2ccc(NC(=O)Nc3ccccc3)cc2C1=O
 : ?	/
> O=C(C[C@@H]1CC[C@H](NC(=O)C2CC2)[C@@H](CO)O1)NCc1ccncc1
 : 8	6

Single values from the entries so far.
Vaccinia inh with OC[C@@H]1[C@@H](c2ccccc2)C2(CN(Cc3nccs3)C2)N1CC1CCOCC1 is entered as 13
Vaccinia inh with CO[C@H]1CN(C)C(=O)c2ccc(NC(=O)c3nc4ccccc4s3)cc2OC[C@H](C)NC[C@@H]1C is entered as -33
Vaccinia inh with C[C@H](CO)N1C[C@H](C)[C@@H](CN(C)S(=O)(=O)c2ccc(F)cc2)Oc2ccc(NC(=O)C3CCCCC3)cc2C1=O is entered as -9
Vaccinia inh Venus with O=C(C[C@@H]1CC[C@H](NC(=O)C2CC2)[C@@H](CO)O1)NCc1ccncc1 is entered as 6
Vaccinia inh with C[C@H]1CN([C@@H](C)CO)C(=O)c2cccc(NC(=O)Nc3ccc4c(c3)OCO4)c2O[C@@H]1CN(C)C(=O)Nc1ccc2c(c1)OCO2 is entered as 4

Another view of some results above.
structure: C[C@@H]1CCCCO[C@H](CN(C)Cc2ccncc2)[C@H](C)CN([C@H](C)CO)C(=O)c2cc(NC(=O)Nc3ccc4c(c3)OCO4)ccc2O1
  Vaccinia inh: ?
  Vaccinia inh Venus: /

structure: CCNC(=O)C[C@H]1CC[C@@H]2[C@@H](COc3ccc(NC(=O)Nc4ccc(C)cc4)cc3C(=O)N2C)O1
  Vaccinia inh: 10
  Vaccinia inh Venus: 5

More structures follow:
Screens in order: Vaccinia inh	Vaccinia inh Venus
> O=C(C[C@@H]1C[C@@H]2c3cc(NC(=O)c4cccnc4)ccc3O[C@@H]2[C@H](CO)O1)NC1CCCC1
 : 12	8
> C[C@@H]1CCCCO[C@H](CN(C)C(=O)c2ccncc2)[C@@H](C)CN([C@H](C)CO)C(=O)c2cc(NS(=O)(=O)c3cn(C)cn3)ccc2O1
 : 34	13
> COc1ccccc1NC(=O)N1CC(=O)N2[C@H](CO)[C@@H](c3ccc(C#Cc4ccccc4)cc3)[C@@H]2C1
 : -28	-19
> C#Cc1ccc([C@@H]2C=C(C(=O)OCC=C)O[C@H](OCC)[C@H]2CCCO)cc1
 : -2	-2
> C[C@@H]1CN([C@H](C)CO)C(=O)c2cccc(NS(=O)(=O)c3ccc(Cl)cc3)c2O[C@H]1CN(C)CC1CC1
 : 0	0
> O=C(Nc1ccc(C(F)(F)F)cc1)N[C@H]1CC[C@H](CC(=O)N2CCCCC2)O[C@H]1CO
 : 0	-5
> Cc1noc(C)c1C(=O)N(C)C[C@@H]1OCc2ccccc2-c2ccccc2C(=O)N([C@@H](C)CO)C[C@@H]1C
 : 16	6
> O=C(C1CCCC1)N1CCCCN2[C@@H](CO)[C@@H](c3ccc(C#CC4(O)CCCC4)cc3)[C@@H]2C1
 : -8	-14
> C[C@@H]1CN([C@@H](C)CO)C(=O)c2cccc(NC(=O)Nc3ccc4c(c3)OCO4)c2O[C@H]1CN(C)C(=O)Nc1cccc2ccccc12
 : 4	6
> C[C@@H]1CN([C@@H](C)CO)C(=O)Cc2cc(N(C)C)ccc2O[C@H]1CN(C)C(=O)Nc1ccccc1
 : 16	-3
> COc1ccc2c3c([nH]c2c1)[C@H](CO)N(CC1CC1)CC31CN(S(=O)(=O)c2cccc(F)c2)C1
 : 6	11
> COCC#Cc1cnc2c(c1)C(=O)N([C@H](C)CO)C[C@@H](C)[C@H](CN(C)C(=O)c1ccc3c(c1)OCO3)O2
 : 24	13
> COc1ccc(NC(=O)N[C@@H]2CC[C@@H](CCn3cc(-c4ccc(F)cc4)nn3)O[C@H]2CO)cc1
 : 0	3
> C[C@@H]1CN([C@@H](C)CO)C(=O)c2cc(NC(=O)Cc3ccccc3)ccc2O[C@@H](C)CCCCO[C@@H]1CN(C)C(=O)CCC(F)(F)F
 : 10	5
> Cc1noc(C)c1NC(=O)N(C)C[C@H]1Oc2ncc(C#CCC(C)C)cc2C(=O)N([C@H](C)CO)C[C@H]1C
 : -5	-11
> COc1ccc(S(=O)(=O)N(C)C[C@H]2OCCCC[C@H](C)Oc3ccc(NS(=O)(=O)c4ccc(Cl)cc4)cc3C(=O)N([C@@H](C)CO)C[C@@H]2C)cc1
 : -19	-12
> O=C(C1CC1)N1C[C@@H]2[C@H](c3ccccc31)[C@@H](CO)N2C(=O)Nc1cccc(F)c1
 : -10	14
> C[C@H](CO)N1C[C@H](C)[C@H](CN(C)CC2CCCCC2)Oc2c(NS(C)(=O)=O)cccc2C1=O
 : 3	-3
> C[C@H](CO)N1C[C@H](C)[C@@H](CN(C)C(=O)c2cccc(F)c2)Oc2ncc(C#CCN(C)C)cc2C1=O
 : 28	4

Bioassay records from PubChem.
